# GIRK2 act = opens human GIRK2 potassium channels. HEK293-GIRK2 thallium flux, Thallos fluorescence. calls only for hits at 25 µM. 0.05% of 63,000 active. P48051. AID 1259325;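 active = among the strongest 0.2% of first-round signals and kept after retests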;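 also: first round at about 10 µM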
# Target sequence (P48051 whole entry, looked up): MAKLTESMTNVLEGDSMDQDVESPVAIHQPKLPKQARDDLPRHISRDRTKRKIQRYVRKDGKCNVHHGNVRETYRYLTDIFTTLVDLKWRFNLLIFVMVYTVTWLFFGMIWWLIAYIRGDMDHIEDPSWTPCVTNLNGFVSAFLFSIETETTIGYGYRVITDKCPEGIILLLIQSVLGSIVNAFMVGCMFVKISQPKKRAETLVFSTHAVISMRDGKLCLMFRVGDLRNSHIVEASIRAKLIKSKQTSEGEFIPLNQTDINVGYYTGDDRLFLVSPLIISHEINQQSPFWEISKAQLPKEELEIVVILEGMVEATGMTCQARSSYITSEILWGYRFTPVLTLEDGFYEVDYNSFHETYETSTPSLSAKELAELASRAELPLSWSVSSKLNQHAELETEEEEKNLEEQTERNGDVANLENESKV
# Calls only; i = inactive. The list is partial; count on the stated rates, not on these rows.
structure	GIRK2 act
CCOC(=O)Cn1c(=O)c2c(nc3n(-c4ccc(CC)cc4)c(-c4ccccc4)cn23)n(C)c1=O	i
COc1ccc(N2C(=O)C(F)(F)C2c2ccc(Cl)cc2)cc1 (centres undefined)	i
Clc1ccccc1CN1CCc2sccc2C1	i
O=C1NCCc2ccc(NC(=O)C3CC(=O)N(c4ccc(Cl)cc4)C3)cc21 (centres undefined)	i
O=C(/C=C/c1ccccc1)NCCc1nc2c(c(C(F)(F)F)n1)CCCC2	i
COc1ccc(-c2nc(N)ncc2-c2ccc(OC)c(OC)c2)c(O)c1	i
CCCCC[C@H](O)/C=C/C1[C@H](O)C[C@H](O)[C@@H]1C/C=C\CCCC(=O)N(CC)CC (some centres undefined)	i
CS(=O)(=O)N1CCN(C(=O)C2CCN(c3ccc(-c4cccs4)nn3)CC2)CC1	i
COc1ccc(NC(=O)Nc2ccc3c(c2)OCC(C)(C)C(=O)N3CC(C)C)cc1	i
Cc1c(C)n2c3c(=O)n(Cc4ccc(F)cc4)c(=O)n(C)c3nc2n1-c1ccc(S(N)(=O)=O)cc1	i
O=C(c1ccc([N+](=O)[O-])o1)N1CCN(C2=NN=C(c3cccs3)CS2)CC1	i
COc1ccc(S(=O)(=O)N(C)c2ccsc2C(=O)NC2CCCCCCC2)cc1	i
CCCOc1ccc(Br)cc1C1C(C(N)=O)=C(C)Nc2ncnn21 (centres undefined)	i
O=C(CCS(=O)(=O)Cc1ccccc1)Nc1nnc(-c2ccco2)o1	i
O=C(NCC(O)c1ccoc1)c1ccc(Cl)s1 (centres undefined)	i
O=C(NCC(c1cccs1)N1CCOCC1)C(=O)Nc1ccc(F)c(F)c1 (centres undefined)	i
COc1cccc(C(=O)NCCN2CCN(c3ccccc3OC)CC2)c1	i
COc1ccccc1NCCn1c(C)c(C)n2c3c(=O)n(C)c(=O)n(C)c3nc12	i
COc1ccc(CNC(=O)Cn2cc(-c3nc(-c4ccc(OC)cc4)no3)ccc2=O)cc1	i
COCC(=O)N1CCC(c2ccc(OC)cc2)C1 (centres undefined)	i
CCOc1ccc(NS(=O)(=O)c2[nH]ncc2C(=O)OC)cc1	i
COc1ccc(NS(=O)(=O)c2cc3c4c(c2)CCC(=O)N4CCC3)cc1Cl	i
Cc1ccccc1NC(=O)NCC(O)c1ccoc1 (centres undefined)	i
O=C(NCCC(O)c1cccs1)Nc1cccc(C(F)(F)F)c1 (centres undefined)	i
O=S(=O)(/C=C/c1ccccc1)N1CCC(COCc2ccc(F)cc2)CC1	i

structure	GIRK2 act
COC(=O)c1ccccc1NC(=O)CSc1ncnc2sc(C)cc12	i
CCN(Cc1ccccc1)C(=O)c1cc2cc([N+](=O)[O-])ccc2oc1=O	i
COc1cc(OC)cc(C(=O)NCC2CCN(C3CCCC3)CC2)c1	i
CS(=O)(=O)c1ccc(NC(=O)c2ccc(Cl)s2)cc1	i
CCOC(=O)c1ccc(NC(=O)Cn2nc3c4c(cccc4c2=O)-c2ccccc2-3)cc1	i
COc1ccc(NC(=O)CN2CCC3(CC2)N=C(c2ccc(OC)cc2)C(=O)N3)cc1	i
CCCc1ccc(C(=O)NCCN2CCN(c3ccccc3)CC2)cc1	i
COc1ccc(S(=O)(=O)NCC2(c3ccccc3OC)CCOCC2)cc1OC	i
COc1ccc(NC(=O)c2nn(-c3cccc(F)c3)c(OC)cc2=O)cc1F	i
CSc1nnc(-c2cccc(S(=O)(=O)N3CCCCC3)c2)n1C	i
COc1ccc(CNC(=O)CSc2nccn2-c2ccc(C(=O)NCc3ccco3)cc2)cc1	i
CCCCC[C@H](O)/C=C/[C@@H]1[C@@H](C/C=C\CCCC(=O)OC(C)C)[C@@H](O)C[C@H]1O	i
COc1ccc(CCNC(=O)NCC2(CO)CC2)cc1	i
O=C(Nc1ccc(S(=O)(=O)N2CCOCC2)cc1)c1cc(-c2ccncc2)nc2ccccc12	i
NC(=O)CNC(=O)c1cccc(-n2ccc3ccccc32)c1	i
C=CC(C)(C)OCC(O)CN1CCN(Cc2ccccc2)CC1 (centres undefined)	i
CS(=O)(=O)NCC1CCC(C(=O)N2CCN(Cc3ccc4c(c3)OCO4)CC2)CC1 (centres undefined)	i
Cc1nn(C)c(C)c1S(=O)(=O)NCC(O)(c1ccccc1)C(F)(F)F (centres undefined)	i
COc1cccc(NC(=O)c2ccoc2COc2ccccc2)c1	i
COC(=O)c1ccc2c(=O)n(-c3cccc(Cl)c3)c(N3CCSCC3)nc2c1	i
Cc1noc(C)c1CCC(=O)NCc1nc(-c2ccccc2)no1	i
COC(=O)c1sccc1S(=O)(=O)Nc1ccc(F)cc1F	i
COc1ccc(CNC(=O)c2ccc(Oc3nccnc3N3CCCCC3)cc2)cc1OC	i
COc1cccc(C(=O)Oc2ccc3c(=O)c(-c4ccccc4OC)coc3c2)c1	i
N#Cc1nc(-c2ccc(F)cc2)oc1N1CCN(C(=O)c2ccc(Cl)cc2Cl)CC1	i

# A second format for 4 compounds above.
molecule: Cc1ccccc1NC(=O)NCC(O)c1ccoc1 (centres undefined)
- GIRK2 act = i
molecule: COc1cccc(C(=O)NCCN2CCN(c3ccccc3OC)CC2)c1
- GIRK2 act = i
molecule: COc1cccc(NC(=O)c2ccoc2COc2ccccc2)c1
- GIRK2 act = i
molecule: CS(=O)(=O)NCC1CCC(C(=O)N2CCN(Cc3ccc4c(c3)OCO4)CC2)CC1 (centres undefined)
- GIRK2 act = i

# Ordered by length of the SMILES (rising): part of the list above
structure	GIRK2 act
COc1cccc(NC(=O)c2ccoc2COc2ccccc2)c1	i
Cc1noc(C)c1CCC(=O)NCc1nc(-c2ccccc2)no1	i
COc1cccc(C(=O)Oc2ccc3c(=O)c(-c4ccccc4OC)coc3c2)c1	i
COc1ccc(NC(=O)CN2CCC3(CC2)N=C(c2ccc(OC)cc2)C(=O)N3)cc1	i
CCOC(=O)c1ccc(NC(=O)Cn2nc3c4c(cccc4c2=O)-c2ccccc2-3)cc1	i

# Additional structures follow:
structure	GIRK2 act
O=C(Nc1cccc(C(F)(F)F)c1)N1CC(c2nc(-c3cccs3)no2)C1	i
O=C1NC(=O)C(c2c[nH]c3ccccc23)C1c1c[nH]c2ccccc12 (centres undefined)	i
COc1cccc(C(=O)COC(=O)c2cc(C)nc3ccccc23)c1	i
O=C(Cn1cccc(-c2nc(-c3ccccc3)no2)c1=O)Nc1ccccc1C(F)(F)F	i
COC(=O)NCC1CCN(Cc2ccccc2)CC1	i
O=C(NCC1CCCO1)C(=O)Nc1cc(F)ccc1F (centres undefined)	i
Cc1nc2sc(C)c(C)n2c(=O)c1NC(=O)c1ccc(Br)o1	i
CCOC(=O)c1c(-c2ccc(C)o2)csc1NC(=O)c1cccnc1	i
CCCCOc1ccc(-c2cc3c(=O)n(CC(=O)Nc4ccc5c(c4)OCO5)ccn3n2)cc1	i
O=C(NC1(c2nc(C3CC3)no2)CCCCC1)C1CC(=O)N(Cc2ccc(Cl)cc2)C1 (centres undefined)	i
CS(=O)(=O)CCNCc1ccc(-c2ccc3ncnc(Nc4ccc(OCc5cccc(F)c5)c(C(F)(F)F)c4)c3c2)o1	i
Cc1cn2c(nc3c2c(=O)n(Cc2ccc(F)cc2)c(=O)n3C)[nH]1	i
Cc1cc(SCC(=O)N2CCN(c3ccccc3)CC2)nc(-c2ccc(F)cc2)n1	i
O=S(=O)(c1ccc(Cl)cc1)N1CCCC(c2nc(-c3ccccc3Br)no2)C1 (centres undefined)	i
Oc1ccc(-c2[nH]ncc2-c2ccc(Br)cc2)c(O)c1	i
Cc1cc(C)n(-c2nc(CCNC(=O)C3(c4cccs4)CCCC3)cs2)n1	i
CNC(=O)C(=O)NCC1OCCCN1S(=O)(=O)c1ccc2c(c1)OCCO2 (centres undefined)	i
COc1ccccc1/C=C/c1nc(C#N)c(N2CCN(C(=O)c3ccccc3OC)CC2)o1	i
COc1ccc(-c2nc(CCNS(=O)(=O)c3cccc(F)c3)cs2)cc1OC	i
COc1cccc(-c2ccc(SCc3nc(-c4cccs4)no3)nn2)c1	i
COc1ccccc1C(=O)NC1CCN(C(=O)c2cn(-c3cccc(Cl)c3)nn2)CC1	i
CC1CCCN(C(=O)C2CCCN(c3nc4c(-c5ccccc5)csc4c(=O)[nH]3)C2)C1 (centres undefined)	i
c1coc(-c2nc3nc4ccccc4nc3n2-c2ccc3c(c2)OCCO3)c1	i
CCOc1ccc(CC(=O)NC(C)Cc2ccco2)cc1 (centres undefined)	i
O=C(Nc1nnc(C(F)(F)F)s1)c1cccc(S(=O)(=O)N2CCOCC2)c1	i

structure	GIRK2 act
COc1cccc(C2=C(c3cn(C)c4cccc(OC)c34)C(=O)NC2=O)c1	i
Cc1nnc(C2CCN(C(=O)c3cc(-c4cccs4)nn3C)CC2)s1	i
COc1ccc(/C=C2\SC(=S)N(c3ccc(NC(C)=O)cc3)C2=O)cc1	i
Cc1ccc(CNC(=O)CSc2nc3c(oc4ccccc43)c(=O)n2Cc2ccco2)cc1	i
O=C(NCCc1ccccc1)Nc1ccc2c(c1)CCCN2C(=O)C1CC1	i
CC(C)c1ccc(S(=O)(=O)c2cnc(SCC(=O)Nc3ccc(F)c(Cl)c3)[nH]c2=O)cc1	i
O=C(Cn1nc(-c2cccs2)c2sc(N3CCCCC3)nc2c1=O)c1ccc2c(c1)CCCC2	i
CCOC(=O)CCC(=O)NCC1CCN(C(C)C)CC1	i
NC(=O)c1ccc(NC(=O)c2ccc(Br)cc2)cc1	i
O=C(Nc1ccc(Cn2cnc(C(=O)NCc3ccccc3)c2)cc1)c1ccc(Cl)cc1	i
COCCNC(=O)Nc1nc(-c2ccccc2)c(C(C)=O)s1	i
COc1ccc(-n2nnc(-c3nc(-c4cc(OC)ccc4OC)cs3)c2C)cc1	i
CC(C)N1CCC(CNC(=O)c2cccc3ccccc23)CC1	i
O=C(CSC1=NNC2C3CC(c4ccc(F)cc4)NN3C=CN12)N1CCCC1 (centres undefined)	i
CCOc1ccc(-n2ccnc(NCCc3ccc(OCC)c(OCC)c3)c2=O)cc1	i
COc1ccccc1CNC(=O)c1nnn(-c2ccc(C)cc2)c1C(C)C	i
CCOC(=O)c1ccc(-n2c(C)cn3c4c(=O)n(CCN5CCCCC5)c(=O)n(C)c4nc23)cc1	i
O=C(Nc1ccccc1-c1ccc(=O)[nH]n1)c1ccc2nsnc2c1	i
CONC(=O)c1csc(-c2cc3ccccc3n2C)n1	i
O=C(CN1CCN(c2cccc(Cl)c2)C1=O)Nc1ccncc1	i
O=C(Cc1csc(-n2cccc2)n1)NCCOc1ccc(F)cc1	i
Cc1cccc(Cn2c(N3CCC(C(N)=O)CC3)nc3c2c(=O)[nH]c(=O)n3C)c1	i
O=C(Nc1ccc(F)c(F)c1)C(=O)N1CCC(Cc2ccccc2)CC1	i
Cc1ccc(S(=O)(=O)NCCN2CCN(c3ccccc3)CC2)cc1C	i
COc1ccc(OC)c2sc(NC(=O)Nc3c(F)cccc3F)nc12	i

structure	GIRK2 act
COc1cc2[nH]c3c(=O)n(CC(=O)N4CCN(c5cccc(Cl)c5)CC4)cnc3c2cc1OC	i
O=C(NCCCn1ncccc1=O)c1cc(-c2ccccc2)n[nH]1	i
Cc1noc(C2CN(C(=O)Nc3ccc(C)c(C)c3)C2)n1	i
O=C(CN1CCN(c2ccc3c(c2)OCO3)C1=O)NCCOc1ccc(F)cc1	i
Cc1cc2oc(=O)cc(CCl)c2cc1C	i
COc1cccc(C(CNC(=O)c2cc(-c3ccc(F)cc3)nn2C)N2CCOCC2)c1 (centres undefined)	i
Cc1c(C)n2c3c(=O)n(CCN4CCOCC4)c(=O)n(C)c3nc2n1-c1ccccc1F	i
CC(C)(O)c1ccccc1CC[C@@H](SCC1(CC(=O)O)CC1)c1cccc(/C=C/c2ccc3ccc(Cl)cc3n2)c1	i
O=C(Cc1ccc(F)cc1)N1CCC(CSC2=NCCS2)CC1	i
O=C(NCCC1=CCCCC1)C1CCN(c2cc(Oc3ccccc3)ncn2)CC1	i
Cc1ccc(NC(=O)C(=O)NCCc2ccc3c(c2)CCCN3C)cc1Cl	i
O=C(Cc1cccc2ccccc12)NCC(O)c1ccc2c(c1)CCO2 (centres undefined)	i
CSc1ccc(CNC(=O)CSc2cc(-n3nc(C)cc3C)ncn2)cc1	i
CCCc1cc(NCc2cccnc2)n2nc3nc(C)cc(C)c3c2n1	i
COCCNC(=O)/C(C#N)=C1\N=C(NC(=O)c2ccccc2Cl)c2ccccc21	i
CNC(=O)C(=O)NCC1CCN(C(=O)c2ccoc2)CC1	i
COc1ccc(N2CCCn3c2nc2c3c(=O)n(CC(C)=O)c(=O)n2C)cc1	i
O=C(/C=C/c1ccccc1)NCCc1ccoc1	i
Cc1cc(NC(=O)CNC(=O)c2ccc(=O)[nH]c2)no1	i
CSc1ccccc1NC(=O)c1nnn(-c2ccc(C)cc2)n1	i
Cc1ccc(C)c(C(=O)Nc2cnc(N3CCN(c4ccccn4)CC3)nc2)c1	i
COc1ccc(CCNC(=O)C2CCC(CNS(C)(=O)=O)CC2)cc1OC (centres undefined)	i
FC(F)(F)c1ccc(-c2nn3ncccc3c2-c2ccnc(Nc3ccc4c(c3)OCCO4)n2)cc1	i
Cc1cc(NC(=O)Cc2ccc([N+](=O)[O-])cc2)n(-c2nc(-c3ccc(Cl)cc3)cs2)n1	i
CCOC(=O)C1=C(C)N(C)C(=O)NC1c1ccc2c(c1)OCO2 (centres undefined)	i
COc1ccccc1-n1ncc2c(C)nnc(SCC(=O)NC3CCCC3)c21	i
COc1ccc(-c2cc3c(=O)n(CC(=O)Nc4cccc(C(F)(F)F)c4)ccn3n2)cc1OC	i
N#Cc1ccc(OC2CCN(C(=O)Cc3ccccc3)CC2)nc1	i

# Compound activity deposited in PubChem by Vanderbilt University.
